Beta cell apopt: blocks beta cell apoptosis; actives 0.8% (n = 300,000); protection from apoptosis, % (no concentration beside the values); INS-1E cytokine-induced death, ATP luminescence, 48 h; percent of positive-control rescue, neutral wells zero;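 active means all replicates at 75% or more, or half of them and the mean; inconclusive means half reach 75% but not the mean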;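 further: 0% = cytokine-treated negative control wells and 100% = positive control rescue; higher means more ATP so stronger rescue from cytokine killing; wells of about 40 µL received 100 nL stock; the first replicate is given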
Ecoli rRNA inh: selective bacterial rRNA inhibition in E. coli; E. coli WT GFP vs humanized-ribosome RFP mutants, fluorescence, 24 h; hits give low values; DMSO median 0, no signal -100; GFP signal change (wild-type ribosome), % (no concentration beside the values); actives 1.6% (n = 350,000);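 active means significant combined selectivity score with lowered wild-type GFP, culture density cut under 30%, mutant RFP and density less affected; inactive means any of these conditions unmet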; further: one replicate is shown; some compounds called inactive have numbers as strong as hits
Bfl-1 A1 inh: inhibitors of the anti-apoptotic protein A1, read as caspase activation. MEF A1-2A-BIM cells, Caspase-Glo 3/7 luminescence, 3 h; percent of clofoctol response, vehicle zero. caspase activation, % (test concentration not listed). actives 0.066% (n = 330,000);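 active means over half of replicate activation scores above 10%, or exactly half above 10 with the replicate mean above 10; inconclusive means replicate mean below 10 yet half the replicates above 10; inactive means over half of replicates below 10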;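 further: wells of about 30 µL received 50 nL stock; many hits fall short of the cut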
T cruzi repl: T. cruzi replication inhibition; T. cruzi beta-gal in NIH3T3, luminescence, 90 h; inhibition, % (concentration not given with the values); actives 1.4% (n = 300,000); AID 1885;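 active means mean inhibition across valid replicates above about 55%, limit read from the data; inconclusive means mean below that limit but half or more replicates reach it; inactive means mean below it, under half of replicates reach it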;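 further: signal also drops with host cell toxicity which is not excluded here; 0% = plate median of DMSO wells and 100% = zero luminescence signal; higher percent means less beta-gal luminescence so fewer parasites; stock transfer was 50 nL into about 50 µL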
Vif TR-FRET: inhibitors of Vif binding to APOBEC3G peptide, primary screen, biochemical, TR-FRET, GST-Vif 1-94, biotin-A3G peptide, dose response retest (AID 1117319); TR-FRET GST-Vif / biotin-A3G peptide binding; higher % means a stronger effect; test concentration not given here; strong numbers were not always called active; one-dose inhibition, %; IC50 in µM for titrated hits; actives 0.57% (n = 260,000);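 active means above the screen mean plus three standard deviations and confirmed in dose response; inconclusive means results disagree or hit not tested in dose response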;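 further: Vif residues 1-94 fused to GST binding biotinylated APOBEC3G peptide 110-148; 0% = full assay without inhibitor and 100% = GST in place of GST-Vif; retest series ran down from 100 µM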
AF4-AF9 inh: MLL-AF4/AF9 protein interaction inhibition; P42568; AlphaScreen, biotin-AF4 peptide binding to FLAG-AF9; inhibition, % at 10 µM; actives 0.47% (n = 350,000); AID 651704;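 active means every replicate reaching a set inhibition limit, whatever the replicate mean, cut at about 25% in these data; inconclusive means mean inhibition reaches that limit but some replicates miss it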;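 further: 0% = plate neutral control median and 100% = total signal loss; the record names both 10 and 1 µM as test concentration; the first replicate is given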
Target sequence (P42568 whole entry, looked up): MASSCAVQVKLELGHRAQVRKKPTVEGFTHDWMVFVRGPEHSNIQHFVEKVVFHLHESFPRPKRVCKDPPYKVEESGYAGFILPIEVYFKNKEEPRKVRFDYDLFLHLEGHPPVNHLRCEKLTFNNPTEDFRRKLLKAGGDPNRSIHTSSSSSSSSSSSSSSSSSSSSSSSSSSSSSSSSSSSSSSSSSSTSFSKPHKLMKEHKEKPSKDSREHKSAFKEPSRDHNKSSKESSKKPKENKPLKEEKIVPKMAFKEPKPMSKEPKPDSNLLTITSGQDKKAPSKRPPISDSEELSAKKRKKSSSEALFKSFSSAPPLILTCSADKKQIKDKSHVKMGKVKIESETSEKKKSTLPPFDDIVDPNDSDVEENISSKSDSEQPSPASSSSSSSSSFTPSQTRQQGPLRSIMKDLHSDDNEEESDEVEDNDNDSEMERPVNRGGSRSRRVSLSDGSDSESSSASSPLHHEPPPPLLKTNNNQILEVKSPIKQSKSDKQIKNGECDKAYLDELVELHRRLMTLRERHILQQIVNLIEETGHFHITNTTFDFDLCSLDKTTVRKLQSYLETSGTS
RanGTP-Impb inh: inhibitors of RanGTP-importin-beta interaction, primary screen, biochemical, FRET, CFP-Ran, YFP-importin-beta, homogeneous. cell-free CFP-Ran/YFP-importin-beta FRET ratio. inhibition, % (test concentration not listed). actives 1.1% (n = 300,000). AID 2216;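 active means most replicates above 15%; inconclusive means exactly half above 15%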;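 further: 0% = DMSO wells and 100% = Ran loaded with GDP instead of GTP; wells of about 40 µL received 100 nL stock; the first replicate is given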
Calb FLC: C. albicans growth modulation with fluconazole. growth inhibition, % (no concentration beside the values). AID 1979. C. albicans CaCi-2 (fluconazole-resistant clinical isolate) + fluconazole, Alamar Blue growth, 48 h. actives 0.57% (n = 300,000);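 active means most replicates above 75%; inconclusive means exactly half above 75%; inactive means most below 75%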;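 further: all wells also contain fluconazole at 8 µg/ml as a sub-toxic cotreatment; 0% = median of DMSO wells and 100% = median of geldanamycin control wells; wells of about 8 µL received 7.5 nL stock; the first replicate is given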
Ecoli rRNA inh OD600: recorded beside Ecoli rRNA inh, whose call it bears; OD600 change, %; measured here: OD600 growth;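 optical density of the mix in the first replicate; 0 = DMSO median and -100 = no signal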
Ecoli rRNA inh RFP: further read-out of Ecoli rRNA inh, marked with its call; RFP signal change, %; measured here: RFP humanized mutant strains;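 first replicate; 0 = DMSO median and -100 = no signal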
* hit, by the source's call; ? = inconclusive; · = no result given; & = joins results of further samples. The list is partial; count on the stated rates, not on these rows.

The line under a structure holds: T cruzi repl	RanGTP-Impb inh	Vif TR-FRET	AF4-AF9 inh	Beta cell apopt	Calb FLC	Bfl-1 A1 inh	Ecoli rRNA inh RFP	Ecoli rRNA inh OD600	Ecoli rRNA inh
1: CCOC(=O)c1c(NC(=O)c2cnn3c2NC(c2cccc(OC)c2)CC3C(F)(F)F)sc2c1CCCC2 (stereo unspecified)
 : 38	5.4	-1%	·	4	-19	-0.4	·	·	·
2: Cc1ccc(C(=O)N2CCOCC2)cc1[N+](=O)[O-]
 : -6	3.9	4%	·	-7	15	0.2	·	·	·
3: COc1ccc(C(CNC(=O)c2cc(C)oc2C)N2CCOCC2)cc1 (stereo unspecified)
 : -6	1.1	5%	·	-6	1	-0.3	·	·	·
4: O=C(Nc1cccc(C(=O)N2CCOCC2)c1)c1ccc([N+](=O)[O-])cc1
 : -16	1.7	14%	0.7	-5	-7	0.8	0.9	10	13
5: CN(C)S(=O)(=O)c1cccc(NC(=O)CNCc2ccccn2)c1
 : -7	?	19%	0.0	-8	2	-0.3	2.5	6	8
6: Cc1ccc(C(=O)Nc2ccc3[nH]c(=O)[nH]c3c2)c(C)c1
 : -25	5.6	-1%	-0.8	0	-1	0.8	0.8	12	15
7: COc1cccc(CNC(=O)c2ccc(CS(=O)c3ccccc3)o2)c1 (stereo unspecified)
 : 6	1.6	·	-2.5	·	-7	0.7	-6.3	-15	-14
8: CCN(CC1COc2ccccc2O1)C(=S)NC1CC2CCC1C2 (stereo unspecified)
 : 2	3.9	-3%	-3.8	2	-1	-0.5	-7.2	0	5
9: Cc1ccc(CN2CCN(C3CCC3)CC2CCO)cc1 (stereo unspecified)
 : 2	-0.7	·	2.3	-3	3	0.9	-1.2	15	18
10: COc1ccc(Oc2nc(SC)nc3ccccc23)cc1
 : 12	?	-6%	·	-4	9	-0.5	·	·	·
11: CCC(C)NC(=S)Nc1ccc2nc(N3CCOCC3)cc(C)c2c1 (stereo unspecified)
 : -15	6.2	-13%	2.2	6	-2	0.1	-20	-39	-31
12: CCOc1ccc(-c2nnc(-c3cccnc3)o2)cc1OCC
 : 5	-4.4	-5%	·	-4	-3	1.2	·	·	·
13: CCOC(=O)c1c(C)[nH]c(C)c1S(=O)(=O)NCC1CCN(Cc2ccccc2F)CC1
 : 16	5.0	·	7.1	2	-2	0.3	-0.3	-1	5
14: COc1cc2[nH]c(=S)nc(Nc3ccc(NC(C)=O)cc3)c2cc1OC
 : 3	2.0	-5%	-2.7	1	9	0.5	-7.5	3	-4
15: Cc1ccc2c(c1)N(C(=O)CCC(=O)NC1CCCCCC1)CC(C)O2 (stereo unspecified)
 : 13	-2.9	·	3.9	4	-7	-1.1	-17	-52	-13
16: C[C@H](CO)N1C[C@H](C)[C@@H](CN(C)S(=O)(=O)c2cn(C)cn2)Oc2ccc(NC(=O)Nc3ccccc3)cc2C1=O
 : ·	·	·	1.0&2.7	-15	·	-0.2	1.8&-3.8	6&-11	4&-12
17: Cc1cc(C)cc(NC(=O)C(OC(=O)c2cc[n+]([O-])cc2)c2ccccc2)c1 (stereo unspecified)
 : ·	·	-11%	-0.3	-2	·	0.0	3.7	-3	4
18: CC(=O)c1ccc(N2CCC(C(=O)O)CC2)cc1
 : -8	0.9	6%	-1.1	5	6	0.0	3.3	1	-5
19: CCC(NC(=O)c1ccccc1NC(=O)c1ccco1)C(=O)NNC(=O)c1ccncc1 (stereo unspecified)
 : -16	-2.1	4%	·	-1	-2	-0.3	2.0	-2	2
20: Cc1ccc(S(=O)(=O)N2CCCCC2)cc1NC(=O)Nc1ccc(Cl)cc1Cl
 : 55*	·	?	0.0	9	·	0.2	1.2	-3	-7

Following part.
The line under a structure holds: T cruzi repl	RanGTP-Impb inh	Vif TR-FRET	AF4-AF9 inh	Beta cell apopt	Calb FLC	Bfl-1 A1 inh	Ecoli rRNA inh RFP	Ecoli rRNA inh OD600	Ecoli rRNA inh
21: O=C(COC(=O)COc1ccc(Br)cc1)NNC(=O)c1ccccc1
 : ·	·	·	-3.1	2	·	-0.1	-2.9	6	6
22: O=C(CNC(=O)c1ccc(Cl)cc1Cl)OCc1ccccc1
 : -23	-3.6	-4%	0.1	-21	-5	0.5	-2.8	3	4
23: COc1ccc(OCC(=O)Nc2ccccc2C(=O)Nc2ccc(C(=O)O)cc2)cc1
 : -14	4.3	·	1.6	-5	12	1.9	-3.2	-8	-8
24: CCCOc1ccc(/C(O)=C2/C(=O)C(=O)N(CCN(C)C)C2c2ccc(OC)c(OC)c2)cc1 (stereo unspecified)
 : 2	0.5	-1%	·	-6	0	-0.2	·	·	·
25: CCOC(=O)/C(C#N)=C/c1cc(C)n(-c2ccccc2)c1C
 : 32	2.9	10%	·	-5	28	0.9	·	·	·
26: Cn1c(CC(=O)NN)c(Sc2ccccc2)c2ccccc21
 : 1	1.9	-1%	-1.5	-10	12	1.1	-0.6	-5	-6
27: COc1ccc(NC2CCCN(Cc3cccc4cnccc34)C2)cc1 (stereo unspecified)
 : 35	0.5	·	?	-4	-1	0.1	-0.8	2	-1
28: CCCCNC(=O)NS(=O)(=O)c1ccc(C(=O)OC(C)C)o1
 : -2	-3.1	-3%	·	-5	3	1.1	·	·	·
29: O=C(COc1ccc2ccccc2c1)NCCNC(=O)COc1ccc2ccccc2c1
 : -9	9.3	-19%	·	-5	2	0.4	·	·	·
30: Cc1c(NS(=O)(=O)c2cc([N+](=O)[O-])ccc2Cl)c(=O)n(-c2ccccc2)n1C
 : -6	1.9	·	-3.4	0	-1	0.7	·	·	·
31: CCc1csc(CNC(=O)C2CCC(=O)N(Cc3cccc(F)c3)C2)n1 (stereo unspecified)
 : -6	0.4	·	-1.5	-1	-6	0.0	4.0	15	3
32: CCCCN(CC)CCNC(=O)CCNC(=O)Cn1ccc2ccccc2c1=O
 : 1	0.8	·	-12	3	-3	0.0	-4.3	7	15
33: CC(=O)NCC(O)c1ccc([N+](=O)[O-])cc1 (stereo unspecified)
 : 10	-1.5	·	0.3	-5	-5	0.6	-0.5	17	11
34: Cc1ccc(Nc2c(-c3ccccn3)nc3cc(C)ccn23)cc1
 : 76*	-1.1	-7%	37*	103*	?	-0.4	-27	-80	-58
35: CCN1CCN(CC(=O)Nc2cc(F)ccc2C)CC1
 : 9	5.2	-2%	·	·	23	3.1	·	·	·
36: Cc1csc(=O)n1CC(=O)Nc1ccc(Cl)c(Cl)c1
 : ·	·	·	-1.6	-6	·	0.0	9.7	-15	-13
37: O=C(C#Cc1ccccc1)c1cccc([N+](=O)[O-])c1
 : 33	?	4%	-2.6	·	3	1.4	-1.9	2	3
38: CC(C)(C)n1ncc2c(=O)n(CC(=O)Nc3ccccc3)cnc21
 : -4	4.3	17%	·	-6	-10	-0.1	·	·	·
39: C/C(N)=C(/C#N)C(=O)CSc1ccccc1F
 : 2	-4.1	-5%	-1.6	-5	7	-1.0	-2.4	-3	4
40: C/C(=N/Nc1nc(-c2ccccc2)cc(-c2ccc(F)cc2)n1)c1cccc(N)c1
 : 25	-2.1	·	·	79*	-4	-0.8	·	·	·

(listing goes on)
The line under a structure holds: T cruzi repl	RanGTP-Impb inh	Vif TR-FRET	AF4-AF9 inh	Beta cell apopt	Calb FLC	Bfl-1 A1 inh	Ecoli rRNA inh RFP	Ecoli rRNA inh OD600	Ecoli rRNA inh
41: Cc1ccc(CNC(=O)COC(=O)c2ccc(S(=O)(=O)N3CCCC3)cc2)cc1
 : 7	?	8%	·	2	-4	-0.4	1.1	8	2
42: O=C(COC(=O)c1nc(Cl)ccc1Cl)NC1CCS(=O)(=O)C1 (stereo unspecified)
 : -7	·	·	?	-3	-2	0.0	-1.0	3	4
43: O=C1C2CCCCC2C(=O)N1c1ccc(S(=O)(=O)Nc2ncccn2)cc1 (stereo unspecified)
 : -16	0.2	-1%	-0.7	-2	-4	0.9	-1.1	15	11
44: Cc1nc(Cl)c(C(=O)NCCC(C)C)c(C)c1[N+](=O)[O-]
 : 6	-1.0	·	·	-6	-9	0.9	·	·	·
45: CCOC(=O)c1ccc(CC(=O)c2ccc(O)c(O)c2O)o1
 : -1	-8.7	12µM*	-15	·	5	·	2.0	2	-12
46: O=C1C(=O)N(c2ccccn2)C(c2cccc(F)c2)/C1=C(/O)c1ccccc1 (stereo unspecified)
 : -17	3.0	-2%	·	-5	-5	1.4	·	·	·
47: O=C(/C=C/c1ccc(F)cc1)Nc1cccc(S(=O)(=O)Nc2cccc(C(F)(F)F)c2)c1
 : 8	-3.6	·	·	6	?	0.2	·	·	·
48: CCOC(=O)c1[nH]cnc1C(=O)Nc1ccc(F)cc1
 : -7	-1.9	-1%	-1.9	-11	3	0.3	-1.3	7	9
49: O=C(CCSc1ccc(Br)cc1)Nc1cccnc1
 : 10	?	-3%	-2.1	-5	6	-0.1	-5.4	-29	-26
50: COCCCNC(=S)NC(=O)c1ccc([N+](=O)[O-])cc1
 : -3	3.7	-4%	3.4	-4	2	0.8	·	·	·
51: COc1ccc(CN2CCNC(=O)C2CC(=O)NCC2CCOCC2)c(C)c1C (stereo unspecified)
 : -15	-0.9	·	0.6	-7	-10	0.1	0.6	10	-1
52: COc1ccc(C(=O)N(CN2CCCC2=O)c2ccc(C)cc2)cc1
 : -2	1.2	-5%	·	-1	103*	?	·	·	·
53: CCOC(=O)CN1C(=O)S/C(=C/c2ccc(OC)c([N+](=O)[O-])c2)C1=O
 : -6	-2.8	4%	-2.9	-3	1	0.8	0.9	6	0
54: CC(C)(C)c1ccc(OCCNC(=S)Nc2ccccc2)cc1
 : 2	4.6	1%	2.4	14	-1	0.9	-28	-73	-44
55: CN1CSC2=C(C#N)C(c3cccc(OCc4ccccc4)c3)CC(=O)N2C1 (stereo unspecified)
 : 27	0.1	27%	14	-8	4	-0.6	7.2	-16	3
56: Cc1[nH]c(C)c(C(=O)/C=C/c2ccc([N+](=O)[O-])cc2)c1C
 : 16	-5.5	·	3.7	-6	1	-0.2	3.7	9	0
57: Cc1ccc(Cn2ccc(NC(=O)c3cc(-c4ccc(Br)cc4)on3)n2)cc1
 : -15	-1.9	-2%	·	·	19	-0.5	-2.7	4	5

Assay outcomes deposited in PubChem by several laboratories.
